# StopGo reporter: FMDV 2A StopGo reporter, luciferase signal. human cells with a luciferase reporter of 2A StopGo recoding; control for the full effect not named in the record. Potency, µM (titrated, usually from 57.9 µM), for the others: at the highest dose signal change, negative = less light. 410,000 compounds, 1.2% hits. AID 1159524; active = well fitted falling curve with a large enough effect; inconclusive = small, poorly fitted or top-dose-only effect; inactive = no such curve, though single readings can be large or run the other way; tested in HEK293T cells; further: on the % scale 0 is the no-effect control and ±100 the full control effect; nearly all actives have a fitted effect of over 45% in size; luciferase light after 4 h
# MARV entry inh: Marburg virus entry inhibition | Marburg virus pseudotyped entry inhibition, cell reporter; control for the full effect not named in the record; about a third of the inactives were read at about 46 µM | Potency, µM (series often up to 37.8 µM), without a hit: top-dose activity change, negative = inhibition, usual class: inhibitors | 300,000 compounds, 1.8% hits | AID 540276; active = well fitted inhibition curve with a large enough effect; inconclusive = small, poorly fitted or top-dose-only effect, or effect the other way; inactive = flat fitted curve, though single readings scatter; tested in HEK293 cells; about a fifth of its hits are not listed in these tables; further: on the % scale 0 is the no-effect control and ±100 the full control effect; luciferase read-out
# SARS PLpro yeast: inhibitors of SARS-CoV papain-like protease in yeast | 330,000 compounds, 0.19% hits | Potency, µM (doses to about 32.9 µM), for the others: at the highest dose activity, positive = growth rescue | S. cerevisiae expressing SARS-CoV PLpro, growth rescue; control for the full effect not named in the record | AID 485353; further: 0% is about no effect; nearly all actives have a fitted effect of over 55% in size; growth read by luminescence after 48 h
# RE007 growth inh: less growth of the S. pombe RE007 Vpr strain | Potency, µM (titrated, usually from 92.2 µM), inactives show at the highest dose activity change, negative = less growth | 360,000 compounds, 0.21% hits | S. pombe RE007 Vpr strain, BacTiter-Glo ATP luminescence, 24 h; control for the full effect not named in the record; active = well fitted falling curve with a large enough effect; inconclusive = small, poorly fitted or top-dose-only effect; inactive = no such curve, though single readings can be large or run the other way;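 further: on the % scale 0 is the no-effect control and ±100 the full control effect; nearly all actives have a fitted effect of over 50% in size; the assay follows cell death caused by Vpr and the record does not say whether a fall means rescue or toxicity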
#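 Fission yeast strain RE007, carrying one chromosomally integrated HIV-1 vpr copy, was seeded at OD 0.01 in PMG+AL medium with 23 nL pinned compound. After 24 h at 30 °C and 99% humidity, viability was read by BacTiter-Glo luminescence.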
# LASV entry inh: blocks Lassa virus binding to or entry into cells; Potency, µM (top dose mostly 37.9 µM), without a hit: at the highest dose activity change, negative = inhibition, most hits filed as inhibitors; Lassa virus pseudotype entry inhibition, cell reporter; control for the full effect not named in the record; 300,000 compounds, 1.2% hits; AID 540256; active means well fitted inhibition curve with a large enough effect; inconclusive means small, poorly fitted or top-dose-only effect, or effect the other way; inactive means flat fitted curve, though single readings scatter; tested in HEK293 cells; further: on the % scale 0 is the no-effect control and ±100 the full control effect; nearly all actives have a fitted effect of over 50% in size; luciferase read-out
# Cruzain Triton: blocks cruzain activity in presence of Triton detergent; P25779; purified cruzain, Z-FR-AMC fluorescence, 0.01% Triton; Potency, µM, for the others: max response, negative = inhibition, usual class: inhibitors; 200,000 compounds, 0.43% hits; AID 1478; active means well fitted curve in the direction sought with a large enough effect; inconclusive means small, poorly fitted or top-dose-only effect, or another doubt; inactive means no such curve, though single readings can be large; an effect the other way counts as inactive or inconclusive;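 further: plate controls were neutral wells for no effect and buffer without enzyme for full effect; nearly all actives have a fitted effect of over 40% in size; top concentration of the series not given in the record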
# Target sequence (P25779 123-467 limits assumed): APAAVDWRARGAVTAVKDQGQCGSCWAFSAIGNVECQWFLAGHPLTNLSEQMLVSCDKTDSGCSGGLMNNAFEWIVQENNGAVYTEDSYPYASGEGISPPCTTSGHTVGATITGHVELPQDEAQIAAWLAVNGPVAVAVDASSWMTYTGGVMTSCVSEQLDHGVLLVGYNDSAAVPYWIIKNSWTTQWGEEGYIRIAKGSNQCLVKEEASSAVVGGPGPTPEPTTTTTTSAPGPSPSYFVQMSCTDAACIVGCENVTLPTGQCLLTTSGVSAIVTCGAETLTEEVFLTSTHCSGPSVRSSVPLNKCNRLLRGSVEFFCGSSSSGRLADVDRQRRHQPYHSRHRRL
#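 In this qHTS format, compounds are incubated with 1.5 nM cruzain for 15 min at room temperature before 2 uM Z-FR-AMC is added. Release of AMC is followed at 360/450 nm, and progress is taken as the 60 s fluorescence difference.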
# Cruzain noTriton: cruzain (T. cruzi) inhibition without detergent; purified cruzain, Z-FR-AMC fluorescence, no detergent; 200,000 compounds, 2.3% hits; AID 1476; P25779; Potency, µM, for inactives: max response, negative = inhibition, hits mostly inhibitors; active means well fitted curve in the direction sought with a large enough effect; inconclusive means small, poorly fitted or top-dose-only effect, or another doubt; inactive means no such curve, though single readings can be large; an effect the other way counts as inactive or inconclusive;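 further: plate controls were enzyme without inhibitor for no effect and buffer without enzyme for full effect; nearly all actives have a fitted effect of over 40% in size; top concentration of the series not given in the record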
#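 Purified cruzain at 1.5 nM, pre-incubated 15 min with compound at room temperature in 100 mM sodium acetate pH 5.5, 5 mM DTT, 0.00005% Triton X-100. Reaction started with 2 uM Z-FR-AMC; AMC fluorescence increase over 60 s gives rate.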
# NS1 function inh: blocks influenza NS1 protein function | 270,000 compounds, 0.4% hits | S. cerevisiae slowed by influenza A NS1, growth recovery by OD600 | Potency, µM (highest dose often 46.1 µM), for the others: at the top dose activity, positive = more growth; further: actives are rising curves; nearly all actives have a fitted effect of over 50% in size
#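 OD600 was taken as the measure of yeast growth restored by compound in an NS1-expressing S. cerevisiae strain. Cells had been washed out of glucose medium and diluted 1:100 into galactose -URA medium, pH 6.0.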
# * = called active by the depositor; ? = inconclusive; . = not tested or not shown; & = joins results of further samples; [ ] = dose if it differs, or a comment. Unless noted, the call rests on the fitted dose curve; in most records, active means well fitted rising curve with a large enough effect; inconclusive means small, poorly fitted or top-dose-only effect; inactive means no such curve, though single readings can be large or run the other way. Potency means the concentration at half of the fitted maximal effect. Hits appear at their usual frequency; any-hit rate near 4.8%.
Structure,LASV entry inh,RE007 growth inh,StopGo reporter,Cruzain noTriton,SARS PLpro yeast,MARV entry inh,Cruzain Triton,NS1 function inh
CC1=C(C(=O)c2ccccc2)C(c2ccc(OC(F)F)cc2)NC(=S)N1 (stereo not given),?,11%,?,.,1%,4µM*,.,-5%
CS(=O)(=O)c1ccccc1-c1nnc(NC(=O)CCS(=O)(=O)c2ccc(Cl)cc2)o1,-29%,3%,-20%,.,-1%,16%,.,.
Cc1cc(C(=O)CN2C(=O)C3CC=CCC3C2=O)c(C)n1-c1ccccc1 (stereo not given),?,-3%,0%,-5%,-2%,?,-2.9%,-22%
Cc1cc(NC(=O)C2CCN(S(=O)(=O)c3cccs3)CC2)no1,6%,-3%,-4%,12%,-8%,?,0.2%,10%
CCCc1c(C(=O)Nc2ccc(F)cc2)cnn1-c1ccccc1,11%,-20%,18%,.,-3%,-16%[46.1 µM],.,-6%
COc1ccc(F)cc1S(=O)(=O)NC1CC(C)(C)NC(C)(C)C1,-14%,-8%,-5%,1%,-1%,?,5.8%,-1%
CC(C)(C)OC(=O)N1CCC(C(=O)N[C@@H](Cc2ccccc2)C(=O)O)CC1,7%,-7%,6%,12%,1%,-3%,3.9%,1%
COc1ccc2c(C)c(CCC(=O)NCc3cccc(Cl)c3)c(=O)oc2c1,15%[46.1 µM],.,-18%,7%,.,30%[46.1 µM],-8.0%,.
CCC1Oc2ccccc2N(CC(=O)Nc2ccccc2OC)C1=O (stereo not given),-1%,9%,-8%,-2%,2%,-21%,1.3%,-4%
Cc1ccc(Cl)cc1N1CCN(C(=O)c2ccc(CS(=O)(=O)c3ccccc3C)o2)CC1,-17%[46.1 µM],.,-15%,24%,.,?,-1.5%,.
CCCC(=O)Nc1c2c(nn1-c1cccc(Cl)c1)CS(=O)(=O)C2,.,14%,0%,.,3%,.,.,-15%
Cn1ccsc1=NC(=O)c1cccc(OC(F)F)c1,4%[46.1 µM],-27%,28%,.,-3%,?,.,-6%
Cc1cc(C(=O)NCCc2ccc(S(N)(=O)=O)cc2)no1,0%,1%,13%,.,4%,-14%,.,.
CC(C)NS(=O)(=O)c1ccc(OCC(=O)N2CCN(Cc3ccc4c(c3)OCO4)CC2)c(Cl)c1,?,8%,?,5%,6%,?,1.9%,-16%
S=C(N1CCCCCC1)N1CC1,5%,-2%,-7%,.,.,-3%,.,.
COc1ccc(/C=N/NC(=O)c2c(C)n(C)c3ccc(OC)cc23)c(OC)c1,0%,2%,-8%,-13%,1%,-3%,-9.4%,-2%
CN(c1ccccc1)S(=O)(=O)c1cccc(C(=O)N2CCCCCC2)c1,?,3%,-7%,.,0%,-25%[46.1 µM],.,.
CCN(CC)c1ccc2cc(-c3nc4sc5c(c4c(=O)[nH]3)CCC(C(C)(C)C)C5)c(=O)oc2c1 (stereo not given),3%[46.1 µM],.,-8%,7%,.,.,0.2%,.
O=C1CCCN1c1ccc(S(=O)(=O)Nc2ccc3c(c2)OCCO3)cc1,?,-4%,.,-10%,1%,?,-0.9%,4%
COC(=O)CNC(=O)N1CCN(S(=O)(=O)c2ccc3c(ccn3C)c2)CC1,11%[46.1 µM],.,6%,-5%,.,.,-0.8%,.
Cn1ncc(Cl)c1C(=O)N/N=C/c1cc2c(cc1[N+](=O)[O-])OCO2,1%,28%,0%,.,12%,-25%,.,-1%
O=C(NCCc1ccccc1)c1ccc(Cl)cc1[N+](=O)[O-],.,-5%,66%[activator],.,-2%,.,.,-5%
CCOC(=O)c1[nH]c(C)c(/C(O)=C2\C(=O)C(=O)N(CCCN(C)C)C2c2ccncc2)c1C (stereo not given),.,.,.,-3%,-7%,3%,0.8%,-2%
COc1cccc(-c2cc(C(=O)NCCCn3ccnc3)no2)c1,9%,-7%,37%[activator],4%,6%,?,-0.3%,0%
Cc1nn(C)c(=O)c(N)c1-c1cc(-c2ccc(Cl)c(Cl)c2)n[nH]1,-10%[46.1 µM],5%,-3%,.,0%,?,.,3%
CCn1c(SCC(=O)Nc2ccc(OC)cc2)nc2nc3c(cc2c1=O)CCCC3,-2%,-14%,-23%,.,0%,?,.,0%
CCOC(=O)c1cnn(-c2cc(C(C)(C)C)nc3c(-c4ccccc4)c(C)nn23)c1N,?,1%,9%,-3%,2%,-7%,-14%,4%
Cc1ccc(C(=O)COC(=O)CCN2C(=O)C3C4CCC(C4)C3C2=O)cc1C (stereo not given),9%,-15%,-13%,.,-3%,11%,.,-45%
CSCCNC(=O)Nc1c(-c2c(Cl)cccc2Cl)noc1C,.,13%,-9%,.,0%,.,.,2%
CCOC(=O)C1=C(c2ccccc2)NC(=O)NC1c1ccc(OC)cc1OC (stereo not given),-15%,13%,-16%,.,-1%,-7%[46.1 µM],.,-4%
CC(=O)Nc1ccc(S(=O)(=O)NCC(=O)OCC(=O)NC(=O)C2CCCCC2)cc1,?,16%,-5%,6%,-9%,19%,-3.4%,5%
CCC(C)N=Cc1c(NCc2ccco2)nc2c(C)cccn2c1=O (stereo not given),-1%,-12%,-11%,-13%,-2%,12%,-4.4%,-10%
Cc1ccc(S(=O)(=O)NC(C(=O)O)c2ccccc2)cc1 (stereo not given),3%,7%,-3%,.,1%,?,.,5%
CCCCn1c(N)c(N(CCC(C)C)C(=O)c2oc3ccc(OCC)cc3c2C)c(=O)[nH]c1=O,-16%,13%,3%,.,0%,20%,.,.
O=C(NCC1(c2ccccc2)CCOCC1)c1ccc(Br)o1,17%,1%,-5%,11%,0%,-8%,5.2%,-14%
CCOC(=O)CN(C(=O)c1snc(C(N)=O)c1N)C(C(=O)NC1CCCCC1)c1ccc(F)cc1 (stereo not given),.,8%,3%,.,6%,.,.,6%
CC(C)N(Cc1nccn1C)C(=O)c1cc(COc2ccc3ncccc3c2)on1,?,1%,-6%,.,-1%,-22%[46.1 µM],.,-3%
Cc1cccc(-n2ncc(C(=O)N3CCN(c4ccc(Cl)cc4)CC3)c2C2CCN(C(=O)OC(C)(C)C)CC2)c1,?,.,-13%,-21%,.,.,-1.4%,.
CCC1CSC(Nc2ccc(C(=O)/C=C/c3cccc(C)c3)cc2)=N1 (stereo not given),5%,1%,-24%,-22%,-11%,?,-18%,13%
CCOC(=O)c1ccccc1NS(=O)(=O)c1c(C)nc2sccn2c1=O,.,2%,38%[activator],.,8%,.,.,-2%
O=C(Nc1ccc(NC(=O)c2ccco2)nc1)c1cccc(F)c1,10µM*,-9%,-2%,.,-2%,?,.,-23%
O=C(COC(=O)c1ccco1)NCc1ccco1,-1%,11%,-4%,-3%,?,-10%,3.6%,-47%
CCN(CC)c1cc(C)c2cc(NC(=O)c3cccc(OC)c3)ccc2n1,?,.,0%,-1%,.,?,-5.6%,.
Cc1cc(C)c(O)c(NC(=S)NC(=O)Cc2ccccc2)c1,-3%,-10%,33%[activator],.,-9%,11%,.,0%
Cc1ccc(CNC(=O)CCCCCn2c(=O)c3sccc3n(CC(=O)Nc3ccc(C)c(F)c3)c2=O)cc1,-7%[46.1 µM],.,-15%,1%,.,3%[46.1 µM],-3.5%,.
COc1cccc(N(C(=O)c2snc(C(N)=O)c2N)C(C(=O)NCC2CCCO2)c2ccc(C)o2)c1 (stereo not given),.,-18%,-4%,.,1%,-9%[46.1 µM],.,-31%
Cc1ccc(NC(=O)CC2C(=O)N(Cc3ccccc3)C(=S)N2NC(=O)c2cccc(F)c2)c(C)c1 (stereo not given),?,-14%,?,11%,4%,?,-7.5%,3%
Cc1ccc(S(=O)(=O)N2CCOCC2)cc1C(=O)N1CC(C)CC(C)C1 (stereo not given),15%[46.1 µM],12%,6%,.,-2%,20%[46.1 µM],.,.
Cc1nn(C(C)(C)C)c(OC(=O)c2cccc(F)c2)c1Sc1ccccc1,-6%[46.1 µM],.,-11%,-12%,.,16%[46.1 µM],-7.7%,.
CCOC(=O)c1cc(C(=O)Nc2cccc(C)c2)nn1C,?,-1%,0%,-1%,-5%,?,0.4%,-36%
COc1ccc(C(=O)Nc2cc(C(=O)O)cc(C(=O)O)c2)cc1Cl,4%,-6%,0%,.,1%,5%,.,1%
CC(C)C1C(C#N)=C(N)SC(N)=C1C#N,-8%,-7%[3.69 µM],-5%,-5%,12%,-19%,7.9%,?
CCOC(=O)Cn1c(=NC(=O)c2nc3ccccc3s2)sc2cc(S(N)(=O)=O)ccc21,18%,-3%,0%,?,-8%,?,-3.2%,6%
CC(C)(C)OC(=O)N1CCC(c2c(C(=O)N3CCN(c4ncccn4)CC3)cnn2-c2ccccc2)CC1,14%[46.1 µM],.,0%,-3%,.,.,-1.6%,.
O=C(NCC(=O)N1CC=C(c2ccccc2)CC1)c1ccccc1Br,-3%,0%,?,.,-6%,?,.,-21%
COc1ccc(Cl)cc1NC(=O)CN(c1cc(C)cc(C)c1)S(=O)(=O)c1c(C)n[nH]c1C,?,.,?,?,.,-28%[46.1 µM],-11%,.
O=C(Nc1ccc(Cc2ccncc2)cc1)c1ccc([N+](=O)[O-])o1,?,-7%,10%,.,-22%,?,.,-103%
Cc1ccc(-c2nnc(SCC(=O)N3c4ccccc4NC(=O)C3(C)C)n2N)cc1,-4%,-8%,-1%,0%,-8%,19%&19%,3.1%,5%
CCCCNC(=O)c1nn(-c2ccccc2OC)c(=O)c2ccccc12,-2%,9%,?,8%,-1%,?,-0.1%,?
CN(C)S(=O)(=O)c1cccc(NC(=O)COC(=O)/C=C/c2cccs2)c1,-1%,27%,2%,.,2%,?,.,.
CCCCNc1nc2c(-c3cccc(C)c3)nnn2c2ccccc12,11%[46.1 µM],.,-11%,17%,.,0%[46.1 µM],-0.7%,.
CCC(=O)Nc1nc2ccc([N+](=O)[O-])cc2s1,-11%[46.1 µM],6%,-14%,.,-7%,-2%[46.1 µM],.,-55%
NC(=O)c1oc2ccccc2c1NC(=O)CCc1ccccc1,.,11%,-2%,-2%,-4%,.,1.3%,-19%
